# Screening data from PubChem BioAssay.
# D2 ag: activates the human D2 dopamine receptor; DiscoveRx PathHunter D2 beta-arrestin, luminescence, 90 min; 100% = 57 uM dopamine signal; activation, % (no concentration beside the values); P14416; hit rate 0.084% among 360,000; AID 624465; in the data active = activation above about 40%; inconclusive = about 15% to 40%; inactive = below about 15%; also: compound concentration not given in the record; the text of the record calls up to 30% inactive
# Target sequence (P14416 whole entry, looked up): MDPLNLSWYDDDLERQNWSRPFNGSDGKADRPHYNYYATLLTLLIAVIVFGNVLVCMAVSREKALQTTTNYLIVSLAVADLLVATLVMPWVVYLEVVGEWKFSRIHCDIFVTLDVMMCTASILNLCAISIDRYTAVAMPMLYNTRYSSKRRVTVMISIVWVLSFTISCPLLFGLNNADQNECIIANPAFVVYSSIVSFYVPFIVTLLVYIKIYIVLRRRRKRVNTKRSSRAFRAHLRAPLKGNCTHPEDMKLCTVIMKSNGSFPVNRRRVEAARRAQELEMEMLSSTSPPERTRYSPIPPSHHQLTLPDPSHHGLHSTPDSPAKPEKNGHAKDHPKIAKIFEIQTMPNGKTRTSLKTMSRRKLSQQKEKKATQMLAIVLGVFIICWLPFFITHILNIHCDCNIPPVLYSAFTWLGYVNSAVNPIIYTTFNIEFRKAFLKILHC
#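 Agonist mode: compounds alone added to overnight-plated D2 PathHunter cells for 90 min at 37 C, with 57 uM final dopamine (EC100) defining full response. Beta-arrestin recruitment detected by chemiluminescent reagent, read after 1 h at ambient temperature.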
# PINK1 modulator: PINK1 expression modulation; AID 624263; hit rate 0.2% among 410,000; Potency, µM (top dose mostly 76.6 µM), without a hit: at the top dose activation (PINK1 increase), usual class: activators; PINK1 immunofluorescence, high-content cytometry, 24 h; active = well fitted activation curve with a large enough effect; inconclusive = small, poorly fitted or top-dose-only effect; inactive = flat fitted curve, though single readings scatter; cell line not stated here;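 also: potency is read from the fitted curve at half-maximal effect; % of control where 0% means no effect; nearly all actives have a fitted effect of over 65% in size; a mitochondrial uncoupler was the plate control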
#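 Decision-based qHTS: stable cells, 24 h exposure to five compound concentrations, CCCP as control. Fixed cells stained for PINK1 plus nuclear, mitochondrial and cell markers, cytometer read.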
# gsp antag: antagonists of gsp mutant (McCune-Albright syndrome) | gsp-mutant cells, cAMP HTRF, 30 min; control for the full effect not named in the record | Potency, µM (highest dose often 76.9 µM), for inactives: top-dose activity change, negative = inhibition, most hits filed as inhibitors | hit rate 0.4% among 340,000 | AID 624288; active = falling curve of any shape with a large fitted effect; inconclusive = falling curve, mostly with a smaller effect; inactive = flat or rising curve; cell line not stated here;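 also: intracellular cAMP measured with PDE inhibitor Ro 20-1724 present during compound exposure; potency is read from the fitted curve at half-maximal effect; % is scaled to controls: 0 for no effect and ±100 for the full control effect; nearly all actives have a fitted effect of over 65% in size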
#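 Cells in G418 medium, seeded 16-24 h, 37C; buffer exchange to DPBS + 1 mM CaCl2, 0.5 mM MgCl2, 0.05% BSA; cpds in DMSO + […] (300 uM stock), 30 min 37C; HTRF cAMP detection.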
# Menin-MLL FL inh: menin-MLL binding inhibition, fluorescein peptide; Fluorescence polarization, fluorescein-MLL peptide displacement from menin; FP activity change, % at 61.4 µM; 290,000 tested, under 10 active; AID 1766; inconclusive = falling polarisation curve, or a change in total fluorescence; inactive = total fluorescence flat and polarisation flat or rising; no compound was filed as active; the % refers to the polarisation; negative = inhibition;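 also: % of control where 0% means no effect; inhibitors lower the polarisation; unlabelled MLL peptide was the positive control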
# gsp ag: gsp mutant agonism; gsp mutant cells, cAMP HTRF, 30 min; control for the full effect not named in the record; Potency, µM (top dose mostly 76.9 µM), without a hit: at the highest dose activation (cAMP increase), usual class: activators; hit rate 0.13% among 340,000; AID 624287; active = well fitted activation curve with a large enough effect; inconclusive = small, poorly fitted or top-dose-only effect, or another doubt; inactive = no such curve, though single readings can be large or run the other way; cell line not stated here;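 also: phosphodiesterase inhibitor Ro 20-1724 added with compounds to block cAMP breakdown; potency is read from the fitted curve at half-maximal effect; nearly all actives have a fitted effect of over 60% in size; about a fifth of the inactives were tested at one dose only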
#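 Cells in DMEM/10% FBS with G418 were pretreated with compounds in DMSO plus […] (300 uM stock) for 30 min at 37C. cAMP was measured by HTRF (cAMP-d2 plus anti-cAMP antibody-K) after 30 min at room temperature.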
# Sfp PPTase inh: Sfp phosphopantetheinyl transferase inhibition | hit rate 3.5% among 310,000 | Biochemical Sfp PPTase activity, qHTS | Q9F4F7 | Potency, µM, for the others: max response, negative = inhibition, actives largely listed as inhibitors; active = well fitted inhibition curve with a large enough effect; inconclusive = small, poorly fitted or top-dose-only effect, or another doubt; inactive = no such curve, though single readings can be large or run the other way;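 also: the enzyme is Sfp with the accession as filed and its product quenches rhodamine fluorescence; potency is read from the fitted curve at half-maximal effect; 0% = enzyme reaction without inhibitor and -100% = no enzyme wells; top concentration of the series not given in the record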
#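 Fluorescence-quenching assay: 15 nM Sfp-PPTase preincubated 15 min at room temperature with compound, then 5 uM rhodamine-CoA and 12.5 uM BHQ-2-labelled YbbR peptide added. Fluorescence (ex 525/em 598 nm) read at start and after 30 min; difference gives rate.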
# ClpP mod: qHTS Assay for Activators of ClpP; ATP-dependent Clp protease proteolytic subunit (Bacillus subtilis (strain 168)), P80244; purified B. subtilis ClpP, FRET peptide cleavage, 20 min; Potency, µM (highest dose often 57.5 µM), for the others: at the top dose activity change, negative = active; hit rate 1.9% among 340,000; AID 651965, 2013; active = well fitted falling curve with a large enough effect; inconclusive = small, poorly fitted or top-dose-only effect; inactive = no such curve, though single readings can be large or run the other way; also: potency is read from the fitted curve at half-maximal effect; the source files actives as falling curves though it sought activators and does not explain the sign; nearly all actives have a fitted effect of over 65% in size; many hits overshoot -100%
# Target sequence (P80244 whole entry, looked up): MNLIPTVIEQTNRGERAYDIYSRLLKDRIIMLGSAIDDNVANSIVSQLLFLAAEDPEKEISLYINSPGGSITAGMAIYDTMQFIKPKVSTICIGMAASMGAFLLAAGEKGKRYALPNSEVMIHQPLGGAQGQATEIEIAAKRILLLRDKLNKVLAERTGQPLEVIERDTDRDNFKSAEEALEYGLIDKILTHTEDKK
#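 Purified B. subtilis ClpP, 10 microg/mL final in Tris/HCl pH8 with KCl, BSA, glycerol and Tween-20, cleaved an Abz/nitrotyrosine-quenched decapeptide. Fluorescence (ex 320, em 430) was read at 0 and 20 min at room temperature. Delta was normalized to 5.8 microM ADEP and DMSO/no-enzyme controls.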
# * hit, by the source's call; u = inconclusive; x = no result given; [ ] = dose if it differs, or a comment.
# The first two compounds, to show the layout:
SMILES,D2 ag,PINK1 modulator,gsp antag,Menin-MLL FL inh,gsp ag,Sfp PPTase inh,ClpP mod
O=C(CSc1nnc(NC(=O)C2CC(=O)N(c3ccccc3)C2)s1)NCC1CCCO1 (stereo unspecified),0.5,-2.1%,10%,-1.5,3%,3%,-1.3%
CCCCN(CC)C(=O)c1cccc(Cl)c1,-2.8,-1.4%,-9%,0.8,u,8%,-0.9%

# Main list, repeating the preview:
SMILES,D2 ag,PINK1 modulator,gsp antag,Menin-MLL FL inh,gsp ag,Sfp PPTase inh,ClpP mod
O=C(CSc1nnc(NC(=O)C2CC(=O)N(c3ccccc3)C2)s1)NCC1CCCO1 (stereo unspecified),0.5,-2.1%,10%,-1.5,3%,3%,-1.3%
CCCCN(CC)C(=O)c1cccc(Cl)c1,-2.8,-1.4%,-9%,0.8,u,8%,-0.9%
COc1ccc(-c2csc(/C(C#N)=C/Nc3ccc4c(c3)OCCO4)n2)cc1,-3.1,5.0%,-16%,u,1%,-2%,-3.5%
CCOc1ccccc1NC(=O)CN(c1ccc(Cl)cc1)S(C)(=O)=O,0.0,-0.4%,-14%,6.1,4%[15.4 µM],3%,0.0%
CCOc1cccc(NC(=O)C2CC(=O)N(c3ccc(F)cc3)C2)c1 (stereo unspecified),-2.3,-0.5%,8%,0.0,-6%,14%,0.5%
Cc1c(C(C)(C)O)[nH]c2cc(C(F)(F)F)ccc12,-0.2,4.1%,5%,-0.1,-45%[inhibitor],16%,4.5%
COc1ccc2nc(C)cc(N/N=C/c3cccc(OC)c3O)c2c1,11,-1.1%,-6%,-15,-38%[inhibitor],u,x
C=CCn1c(SCCN)nnc1-c1cccc(S(=O)(=O)N2CCOCC2)c1,0.6,4.0%,9%,x,-5%,x,-0.9%
O=C(CC1CCOCC1)Nc1ccc(Cl)c(Cl)c1,3.1,1.4%,-3%,4.5,22%,-3%,x
O=C(CSc1nc2ncccc2[nH]1)c1cccc([N+](=O)[O-])c1,-4.3,-1.6%,-17%,-1.0,u,-30%,1.9%
COc1ccc(S(=O)(=O)c2ccc(OCC3CO3)cc2)cc1 (stereo unspecified),-0.1,-0.1%,-2%,3.3,u,18%,x
c1ccc(NC2=Nc3ccccc3CS2)cc1,-4.2,-0.4%,8%,-0.3,-4%,21%,-1.0%
O=C(NC(NNc1ccc([N+](=O)[O-])cc1)(C(F)(F)F)C(F)(F)F)c1ccccc1Cl,2.3,2.4%,-30%,2.9,-87%[inhibitor],-18%,2.5%
Cc1c(O)c(=O)c2ccccc2n1C,-3.9,-0.8%,4%,-5.3[11.7 µM],x,-27%,3.4%
O=c1cc(-c2ccco2)nc(-c2cccs2)o1,-3.5,-2.6%,-7%,4.1,12%,16%,-7.1%
O=C(COC(=O)c1ccc2ncsc2c1)NCc1ccccc1Cl,4.1,-0.3%,2%,x,0%,x,2.7%
O=C(CCNC(=O)C1CCN(S(=O)(=O)c2ccccc2)CC1)Nc1cccc(C(F)(F)F)c1,-0.1,-1.6%,-13%,x,u,15%,0.0%
CCOc1ccccc1NC(=O)CSc1ccc2nnc(-c3cccnc3)n2n1,-6.6,0.0%,3%,-3.2,24%[15.4 µM],14%,x
COC(=O)c1ccccc1NC(=O)Oc1ccc(C(C)C)cc1,0.4,1.0%[38.3 µM],9%,2.5,7%,8%,32µM*
Clc1cccc(C2Nc3cccc4cccc(c34)N2)c1Cl,11,8.7%,-5%,1.5,-38%[inhibitor],0%,x
O=C1NCCCCC1NS(=O)(=O)c1cccc(C(F)(F)F)c1 (stereo unspecified),-1.3,5.1%,11%,5.0,-8%,12%,-0.5%
N#Cc1nc(-c2ccccc2F)oc1NCCN1CCOCC1,-7.0,2.3%,-3%,-3.7,5%,-10%,4.4%
CC(=O)Nc1cccc(N(C(=O)C2COc3ccccc3O2)C(C(=O)NC2CCCCC2)c2cn(C)nc2C)c1 (stereo unspecified),-1.9,-0.7%,-6%,-0.1,8%[15.4 µM],17%,x
Cc1cc(C)n(-c2nnc3n2N=C(c2ccccc2)CS3)n1,-0.8,-0.1%,-2%,0.7,u,-6%,4.7%
Cc1ccccc1C(=O)Nc1c(C(=O)N(CCN(C)C)Cc2ccco2)oc2ccccc12,-4.7,-1.0%,0%,0.0,u,16%,-4.2%
COc1ccc(C(=O)NCCS(=O)(=O)NCc2ccc(C)cc2)cc1,1.3,2.5%,6%,x,0%[15.4 µM],x,x
CN(C)CCCN(C(=O)c1ccc(S(=O)(=O)N2CCc3ccccc3C2)cc1)c1nc2c(F)cc(F)cc2s1,-2.4,1.0%,4%,x,8%[15.4 µM],x,x
Cn1c(CC(=O)Nc2ccccc2)nnc1SCC(=O)c1ccccc1,-1.2,0.6%,5%,4.7,0%,35µM*,-2.2%
COc1ccc(C(=O)Cc2ccccc2C(=O)O)cc1,-3.6,-5.3%,-1%,x,0%,x,-7.6%
CCOCCCNC(=O)C(NC(=O)c1ccc(=O)[nH]c1)c1ccccc1 (stereo unspecified),1.5,-3.7%,10%,-0.3,5%,11%,-2.1%
COc1ccccc1CNCC(=O)Nc1ccccc1-n1cccc1,3.2,-0.9%,0%,-1.5,-7%,u,1.2%
COC(=O)c1ccc(C)c(NS(=O)(=O)c2ccc(NC(C)=O)cc2)c1,-1.5,19%[38.3 µM],-13%,0.4,29%,7%,-0.3%
Cc1csc(=O)n1CCC(=O)OCC(=O)Nc1ccc(C(N)=O)cc1,-5.3,1.9%,13%,x,2%,x,-0.4%
O=C(O)c1ccccc1C(=O)OCC1CCC(=NO)CC1 (stereo unspecified),-3.7,0.4%,x,x,-37%[inhibitor],x,0.4%
Cc1nc(-c2ccc(C(=O)O)cc2)cs1,-0.9,7.0%[38.3 µM],0%,1.5,-4%,-3%,u
COc1ccc(NC(=S)N2CCCC2c2ccc(OC)c(OC)c2)cc1 (stereo unspecified),-2.6,2.8%,-5%,-0.1,u,13%,x
CCOc1cccc(CN2CCN(CCc3ccccc3)C(CCO)C2)c1O (stereo unspecified),1.4,0.4%,8%,-1.0,26%,8%,-2.4%
CCCCNC(=S)N(CCCO)Cc1cc2cc3c(cc2[nH]c1=O)OCCO3,-3.1,1.0%,-21%,0.6,27%[15.4 µM],10%,0.9%
O=C(CN1CCN(c2ncc(C(F)(F)F)cc2Cl)CC1)NCCNc1ncc(C(F)(F)F)cc1Cl,-0.8,1.1%,-10%,0.6,17%,25%,2.2%
C/C(=N\NC(=O)c1cccc(F)c1)c1ccc(Br)s1,-3.7,u,1%,2.3,21%,22%,0.3%
COc1ccccc1CNc1cc(-c2c(C)noc2C)ncn1,x,1.3%,x,-6.2,x,18%,x
CCOC(=O)C1CCN(C(=O)CN2C(=O)NC(C)(c3ccc4cc(OC)ccc4c3)C2=O)CC1 (stereo unspecified),0.6,0.2%,0%,x,0%,x,x
CS(=O)(=O)Nc1ccc(C(=O)Nc2ccc3c(c2)OCO3)cc1,-4.9,4.3%,-14%,-0.1,5%[15.4 µM],6%,x
COc1ccc(C(=O)c2cc3cccc(OC)c3o2)cc1,-2.7,0.4%,-26%,1.1,25%,-16%,0.8%
COc1ccc(C(=O)NCCc2c[nH]c3ccccc23)cc1OC,-2.9,1.7%,-2%,1.4,3%,9%,x
CCOC(=O)CNC(=O)c1cc(-c2ccc3c(c2)OCCO3)oc1C,0.0,-1.3%,-19%,0.5,-21%,-10%,-5.4%
CN1C(=O)CC(Sc2ccccc2C(=O)O)C1=O (stereo unspecified),-0.9,-6.0%[38.3 µM],7%,-2.7,-4%,9%,-2.6%
C/C(=N\NC(=O)CN1CCCCC1)c1cccc([N+](=O)[O-])c1,0.6,-0.1%,8%,x,4%,x,x
Cc1cnc(-c2nnc(N(C)C(=O)C3CCCO3)s2)cn1 (stereo unspecified),-3.7,-1.7%,1%,-1.1,5%,-4%,28µM*
Cc1cc(C)n(C(=O)C(C(=O)c2ccccc2)C(C)C)n1 (stereo unspecified),-5.7,6.3%,-25%,-1.2,8%[15.4 µM],u,17%
Cc1noc(C)c1COC(=O)c1cc2c3ccccc3n(C)c2s1,-2.9,1.1%,u,7.2,3%,u,u
COc1ccc(-c2noc(CCC(=O)Nc3nc4ccccc4s3)n2)cc1,-2.2,0.0%,8%,0.4,-14%,2%,-5.9%
CCSc1ncc(Cl)c(C(=O)Nc2ccccc2Cl)n1,-0.6,2.4%,-5%,-8.7,-1%,1%,1.8%
COc1cc(-c2noc(-c3cccs3)n2)cc(OC)c1OC,-2.9,6.3%,-6%,-6.4,-6%,4%,1.6%
Cc1ccc(CNC(=O)C2CCN(S(=O)(=O)N3CCOCC3)CC2)cc1,-1.8,11%[38.3 µM],4%,4.4,2%,10%,0.4%
Nc1nnc(CSCc2ccc(Cl)cc2Cl)s1,-4.7,0.8%,13%,1.8,14%[15.4 µM],15%,x
CN(C)CCCNc1ncnc2scc(-c3ccccc3)c12,-5.0,-0.6%,19%,-0.3,1%[15.4 µM],-55%,x
CCCc1cc(=O)oc2cc(C)cc(OCC(=O)NC(Cc3ccc(Cl)cc3)C(=O)O)c12 (stereo unspecified),-4.2,0.6%,-3%,0.9,x,30%,4.8%
Cc1cc(C)nc(-n2nc(C)cc2NC(=O)CN2CCC(C)CC2)n1,-7.6,-0.4%,-8%,u,-64%[inhibitor],4%,4.9%
O=C(NNC(=O)c1ccccc1F)c1ccc2nc[nH]c2c1,-1.9,1.5%,15%,x,6%,18%,1.0%
CCOC(=O)c1ccc(N2C(=O)C=C(N3CCOCC3)C2=O)cc1,-1.4,-0.7%,-7%,18,-2%,15%,-1.6%
O=C(/C=C/Nc1ccccc1Br)c1ccccn1,-0.4,1.7%,2%,3.3,4%,u,-0.9%
O=C(COC(=O)c1ccc2[nH]c3c(c2c1)CCCC3)NC1CCS(=O)(=O)C1 (stereo unspecified),-0.1,1.1%,1%,-6.9,-11%[15.4 µM],6%,x
